Bioassay records deposited in PubChem by National Center for Advancing Translational Sciences (NCATS).
VDR inh = vitamin D3 receptor (human) inhibition; VDR-SRC2-3 peptide fluorescence polarization, 2 h; actives 0.93% (n = 400,000); Potency, µM, for the others: max response, negative = inhibition, usual class: inhibitors; P11473; active = well fitted inhibition curve with a large enough effect; inconclusive = small, poorly fitted or top-dose-only effect, or another doubt; inactive = no such curve, though single readings can be large or run the other way; also: series mostly up to about 120 µM
Target sequence (P11473 whole entry, looked up): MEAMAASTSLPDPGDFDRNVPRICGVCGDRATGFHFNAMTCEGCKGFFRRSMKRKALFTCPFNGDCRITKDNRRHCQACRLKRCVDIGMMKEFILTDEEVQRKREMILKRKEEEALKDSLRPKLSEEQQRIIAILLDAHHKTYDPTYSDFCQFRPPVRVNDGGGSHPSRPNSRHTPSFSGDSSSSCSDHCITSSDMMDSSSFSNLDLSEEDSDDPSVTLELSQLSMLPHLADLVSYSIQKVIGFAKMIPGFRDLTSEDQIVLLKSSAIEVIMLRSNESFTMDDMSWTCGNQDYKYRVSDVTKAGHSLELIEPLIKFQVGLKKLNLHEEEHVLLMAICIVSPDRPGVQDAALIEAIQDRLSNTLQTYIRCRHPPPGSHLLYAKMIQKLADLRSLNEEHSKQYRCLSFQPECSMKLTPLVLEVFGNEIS
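The screen uses fluorescence polarization to detect compounds that interfere with recruitment of the SRC2-3 coactivator peptide to VDR; plates are read after 2 h at room temperature.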
An asterisk follows results filed as active; ? = inconclusive; & = joins results of further samples; [ ] = dose if it differs, or a comment. % is scaled to controls: 0 for no effect and ±100 for the full control effect; potency is read from the fitted curve at half-maximal effect.

SMILES	VDR inh
O=C(CC1(O)C(=O)N(CCc2ccccc2)c2ccccc21)c1ccco1 (centres undefined)	2%
Cc1cccc2cc(CN(CC3CCCO3)C(=O)c3cnccn3)c(=O)[nH]c12 (centres undefined)	1%
O=C(O)Cn1c(-c2ccccc2)cc2ccccc21	-20%
CCOC(=O)c1c(C)oc2c1cc(NS(=O)(=O)c1ccc(C)cc1)c1ccccc12	-10%
CCSc1nsc(SCC)c1C(N)=O	17%
O=C1/C(=C\c2ccco2)SC(=S)N1C1CCS(=O)(=O)C1 (centres undefined)	12%
CCCCN(CC)CCCNC(=O)c1ccc(CS(=O)(=O)c2ccccc2C)o1	-4%
O=C(c1cccc(NC2=NC3CS(=O)(=O)CC3S2)c1)N1CCN(c2ncccn2)CC1 (centres undefined)	5%
O=C(NCc1ccco1)C1CC(=O)N(c2cccc(Cl)c2)C1 (centres undefined)	3%
CCOC(=O)C1=C(C)N(C)C(=S)NC1c1ccccc1Cl (centres undefined)	-9%
COc1ccc(/C(N)=N/OC(=O)c2ccco2)cc1	10%
CCN1CCN(C(=S)Nc2cccc(Cl)c2)CC1	9%
CCCc1cc(=O)oc2cc(C)c3c(C)coc3c12	-5%
CC(C)NCc1nnc(-c2ccccc2Cl)o1	-24%
Cc1ccc(CNC(=O)CCNS(=O)(=O)c2cccc3nsnc23)cc1	11%&-4%
CCOc1ccc(/C=N/NC(=O)C(=O)N2CCCCCC2)c2ccccc12	-7%
CCN(CC)S(=O)(=O)c1cccc(-c2nnc(SCCOc3ccccc3C)o2)c1	-6%
CCOc1ccc(NC(=O)CSc2nnc(COc3c(C)cccc3C)o2)cc1	-8%
CCCN(CCC)C(=O)Cn1c(=O)n(-c2ccc(C)c(C)c2)c(=O)c2c3c(sc21)CCCCC3	3%
Cc1c(Br)c([N+](=O)[O-])nn1CC(=O)c1ccccc1	-15%
CC1(C)CC(=O)C/C(=N\NC(=O)CCc2ccc(S(=O)(=O)N3CCOCC3)cc2)C1	1%
CSc1ccccc1NC(=O)c1cccnc1	-7%
O=C(CCC1CCCCC1)Nc1ccc(S(=O)(=O)Nc2nccs2)cc1	-3%
Cc1cc(=O)[nH]c2nnc(SCc3cccc(F)c3)n12	2%
O=C(NCC1CCCO1)c1ccc(S(=O)(=O)N2CCCCC2)cc1 (centres undefined)	-12%
O=C(CNC(=O)c1ccco1)NCc1ccc2c(c1)OCO2	-21%
Cc1cc(C)n2c(=O)[nH]nc2c1	-24%
COc1ccc(-c2cc(C(F)(F)F)nc(SCC(=O)Nc3cc(C)on3)n2)cc1OC	-3%
CCC(=O)N1c2ccc(S(=O)(=O)N3CCN(CC)CC3)cc2CC1C (centres undefined)	2%
Cc1ccc(NC(=O)CSc2nc(-c3cccs3)nc3cc(=O)[nH]n23)cc1C	-3%
Cc1cccc(N(C)S(=O)(=O)c2c(C)noc2C)c1	-13%
c1ccc2cc(OCc3nc4ccccc4[nH]3)ccc2c1	11%
COc1ccc(C)cc1NC(=O)C(OC(=O)C1CC1)c1ccccc1 (centres undefined)	-11%
COc1ccc([N+](=O)[O-])cc1NC(=O)C(C)N(C)Cc1cccc(OC)c1OC (centres undefined)	-7%
COc1ccc(CCNC(N)=S)cc1OC	-2%
S=c1[nH]cc(-c2ccccc2)n1-c1cccc(Cl)c1	1%
Cc1ccc(-c2cc(C(=O)O)c3cc(Br)ccc3n2)o1	32µM*
CCOC(=O)C1CCN(C(=O)c2ccc(Cl)c(S(=O)(=O)N3CCOCC3)c2)CC1	-11%
Cc1ccc(NC(=O)CSc2nc3c(oc4ccccc43)c(=O)n2Cc2ccco2)cc1	-7%
C=CCOCCN1C(=O)C2C(c3ccccc3)C=CC(c3ccccc3)C2C1=O (centres undefined)	-8%
Cc1ccc(-c2csc(N3CCC(C(N)=O)CC3)n2)cc1	-4%
COC(=O)/C=C1\S/C(=N\N=C\CC(=O)OC)NC1=O	-13%
CCOc1ccc(CNC(=O)Nc2ccccc2)cc1	7%
COc1ccc(CC(=O)Nc2ccc3nc(SC)sc3c2)cc1OC	32%[activator]
CCCn1c(CCC(=O)Nc2ccc(OCC)cc2)nc2cccnc21	-2%
OCCC1CN(Cc2cc(F)ccc2-n2cccn2)CCN1C1CCCC1 (centres undefined)	5%
O=C(Nc1ccc(Br)cc1)C1CC(O)CN1C(=O)Oc1ccccc1 (centres undefined)	-6%
COc1ccccc1NC(=O)C(C)OC(=O)C1CCN(S(=O)(=O)c2ccccc2C(F)(F)F)CC1 (centres undefined)	1%
Cc1ccccc1NC(=O)CCN1CCN(Cc2ccccc2)CC1	-5%
O=C(COC(=O)c1cnccn1)NCCc1ccc(Cl)cc1Cl	6%
c1ccc(CSc2ccc(-c3cccnc3)nn2)cc1	-5%
CCC(=O)Nc1ccccc1Oc1ccccc1	-23%
Cc1oc2ccc(OCc3ccc(F)cc3)cc2c1C(=O)O	10%
C[C@H](NC(N)=O)C(=O)N1CCN(S(=O)(=O)c2ccc3ccccc3c2)CC1	16%
Cc1ccc(OCC(=O)N/N=C2\CC(=O)CC(C)(C)C2)c(Br)c1	1%
CC1CN(C(=O)CSc2nnc(C3CCCCC3)n2N)CC(C)O1 (centres undefined)	-6%
CCc1ccc(NC(=O)c2sc3nc(C)c(Cl)c(C)c3c2NC(=O)c2ccccc2)cc1	5%
Cc1ccc(NC(=S)NCC2CCCO2)c(OC(F)F)c1 (centres undefined)	-3%
O=C(O)c1ccc(Nc2ncnc3c2cnn3Cc2ccccc2)cc1	?
CCc1ccc(NC(=O)C(CC)Sc2nc3cc4c(cc3c(=O)n2Cc2ccco2)OCO4)cc1 (centres undefined)	-13%
(next part)
SMILES	VDR inh
CC(C)OC(=O)CC1C(=O)NCCN1C(=S)NC(=O)CCc1ccccc1 (centres undefined)	-14%
CC(=O)Nc1ccc(/C(C)=N/NC(=O)c2ccc(CN3CCOCC3)cc2)cc1	16%
Nc1nonc1-c1nc2ccccc2n1CC(=O)Nc1cccc(C(F)(F)F)c1	7%
O=C(CSc1nc2ccccc2c(=O)[nH]1)Nc1ccc(N2CCOCC2)cc1	-6%
Oc1cccc(C=NCc2ccccc2)c1O	?
Cc1cccc(C)c1NC(=O)c1sc(-n2nc(C)c(Cc3ccc4c(c3)OCO4)c2C)nc1C	2%
Cc1ccc(C)c(NC(=O)N2CCC(CN3CCOCC3)CC2)c1	10%
CCCCCCSc1ccc([C@@H]2[C@@H]3C(=O)N(CC)C(=O)[C@@H]3[C@]3(C(=O)OC)CCCCN23)cc1	3%
CC(C)c1ccc(/C=C(\C#N)c2nc(-c3ccc(O)cc3)cs2)cc1	0%
CC(C)OC(=O)/C(=C\c1ccc2c(c1)c1ccccc1n2C)NC(=O)c1ccccc1	13%
CSc1ccc(CNc2ncc(-c3cccc([N+](=O)[O-])c3)n2C)cc1	-2%
Cc1nc(/N=C(\N)N(C)C)[nH]c(=O)c1C	7%
C[C@@H](C(=O)Nc1ccc2ccccc2c1)[C@@H]1C[C@@]1(C)[C@@H](N)c1ccccc1	0%
COc1cccc(/C=C2\SC(=O)N(CCC(=O)NNC(=O)c3ccccc3Cl)C2=O)c1	-15%
CCOC(=O)Cc1nnc(NC(=O)COc2ccc(C)cc2)s1	-11%

In the list so far, 3 contain a nitro group on carbon:
SMILES	VDR inh
Cc1c(Br)c([N+](=O)[O-])nn1CC(=O)c1ccccc1	-15%
COc1ccc([N+](=O)[O-])cc1NC(=O)C(C)N(C)Cc1cccc(OC)c1OC (centres undefined)	-7%
CSc1ccc(CNc2ncc(-c3cccc([N+](=O)[O-])c3)n2C)cc1	-2%

Continuation.
SMILES	VDR inh
O=[N+]([O-])c1ccc(COc2cccnc2)cc1	12%
CCC(=O)N1CCc2cc(S(=O)(=O)CCC(=O)NCc3cccs3)ccc21	-25%
CCCS(=O)(=O)N1CCc2ccc(NC(=O)c3ccccc3Cl)cc2C1	0%
CCCC1=NN2C(=N)/C(=C\c3cc(C)n(Cc4ccccc4)c3C)C(=O)N=C2S1	-1%
c1ccc(CCc2ccncc2)cc1	-22%
C=CCn1c(-c2sccc2C)n[nH]c1=S	2%
Nc1nc(NCc2ccccc2)nc(Nc2cccc(F)c2)c1[N+](=O)[O-]	4%
O=C(CCNC(=O)N1CC(=O)Nc2ccccc21)NCc1ccc(F)cc1	4%
CCOC(=O)N1CCN(C(=O)c2ccc3c(=O)n(Cc4ccc(Cl)cc4)c(=S)[nH]c3c2)CC1	-13%
N#Cc1ccccc1-c1ccc2ncnc(NCc3ccccc3)c2c1	-15%
C=CCN1C(=O)C(O)(CC(=O)c2ccco2)c2cc(Br)ccc21 (centres undefined)	-13%
Cc1ccc(C)c(OCC(O)CN2C(C)CCCC2C)c1 (centres undefined)	-12%
COc1ccc(OCC(=O)NNC(=O)CCc2ccccc2)cc1	-5%
Cc1cc(Nc2ccccc2C)n2nc(Cc3ccc(Cl)cc3)nc2n1	7%
Cc1ccc(S(=O)(=O)NC(=O)Nc2cc(C(C)(C)C)on2)cc1	-2%

In the list so far, these contain a cyano group.
SMILES	VDR inh
CC(C)c1ccc(/C=C(\C#N)c2nc(-c3ccc(O)cc3)cs2)cc1	0%
N#Cc1ccccc1-c1ccc2ncnc(NCc3ccccc3)c2c1	-15%

The results go on:
SMILES	VDR inh
CN(C)CCCN(C(=O)C1COc2ccccc2O1)c1nc2ccc(F)cc2s1 (centres undefined)	-6%
Cc1ccc(C(OCC(O)CNCc2ccc(F)cc2)c2ccccc2)cc1 (centres undefined)	-3%
Cc1cc(C)c(S(=O)(=O)c2ccccc2C)c(Cl)n1	17%
CCOC(=O)c1c(C)[nH]c(C)c1C(=O)CN1C(=O)NC(CC(C)C)C1=O (centres undefined)	0%
CN1CCN(C(=O)C(=O)Nc2c3c(nn2-c2ccc(Cl)cc2)CSC3)CC1	14%
COc1cc(/C=C/C(=O)OCC(=O)N2CCCC2)ccc1OCC#N	-13%
Cc1cccc(NC(=O)C2CCN(C(=O)NCc3ccccc3)CC2)c1C	-5%
COCCCNC(=O)CSc1nc2cc(OC)c(OC)cc2c2nc(-c3ccccc3)nn12	-22%
Cc1cc(=O)oc2ccc(OCC(=O)O)cc12	-5%
Cn1cccc1C(=O)OCC(=O)Nc1ccc2c(c1)CCC2	8%
Cc1cc(C)c(OCC(=O)OCC(=O)NC2CCC(C)CC2)c(C)c1 (centres undefined)	-10%
CC(C(=O)N1CCc2ccccc21)n1cnc2c1c(=O)n(C)c(=O)n2C (centres undefined)	4%
Cc1nnc(SCC(=O)Nc2ncc3c(n2)CC(C)(C)CC3=O)s1	-10%
Cc1ccc(-c2nc(CS(=O)CC(=O)N3CCN(c4ccccc4)CC3)c(C)o2)cc1 (centres undefined)	2%&-8%
O=C(NCCCN1CCOCC1)NC12CC3CC(CC(C3)C1)C2	-6%
CNc1ncnc2c1cnn2C1CCCCO1 (centres undefined)	-2%
CCN(CCn1cccn1)Cc1ccccc1OCC(O)CN1CCc2ccccc2C1 (centres undefined)	-1%
Cc1[nH][nH]c(=O)c1C(c1ccc(Cl)cc1)c1c(C)[nH][nH]c1=O	-7%
N#C/C=C1\n2c(nc3ccccc32)OC12CCCCC2	3%
COc1ccc(C(=O)O/N=C(\C)c2ccccc2)cc1	6%
COc1cc(C2C(C(C)=O)=C(O)C(=O)N2Cc2ccccc2)ccc1O (centres undefined)	28%
O=C(CSc1nccn1Cc1ccc(F)cc1)NCc1ccco1	16%
Cc1nn(Cc2ccc(F)cc2)c2sc(C(=O)Nc3ccc(N4CCOCC4)cc3N3CCOCC3)cc12	-7%
O=S(=O)(c1ccccc1)c1ccc(NCc2ccco2)cc1	-1%
O=C1c2ccc(Cl)cc2S(=O)(=O)c2cccc(C(=O)N3CCC(Cc4ccccc4)CC3)c21	-5%
O=C(CN1CCN(Cc2ccccc2)CC1)Nc1cccc(Br)c1	-12%
COc1ccc(-c2cc(C(=O)NC3CCCC3)no2)cc1	10%
COCCNC(=O)c1n[nH]c2ccccc12	0%
O=S(=O)(NCC1CCCO1)c1ccc(S(=O)(=O)N(Cc2ccc(F)cc2)Cc2ccco2)cc1 (centres undefined)	-15%
COc1ccc(N2CCN(/C(=N\S(=O)(=O)c3ccccc3)Nc3nc(C)cc(C)n3)CC2)cc1	-4%

4 entries from above in another layout:
Compound | VDR inh
Cc1ccc(NC(=O)CSc2nc(-c3cccs3)nc3cc(=O)[nH]n23)cc1C | -3%
CC(C)OC(=O)CC1C(=O)NCCN1C(=S)NC(=O)CCc1ccccc1 (centres undefined) | -14%
COC(=O)/C=C1\S/C(=N\N=C\CC(=O)OC)NC1=O | -13%
CCOc1ccc(CNC(=O)Nc2ccccc2)cc1 | 7%

Other structures:
SMILES	VDR inh
Fc1ccccc1N1CCN(c2c3c(nc4nncn24)CCC3)CC1	17%
Cc1ccccc1OCC(=O)Nc1ccc(N2CCN(C)CC2)c(Cl)c1	-23%
O=C(N/N=C/c1ccccc1Br)C1CC1	7%
CC1(C)Cc2nc3nc(SCC(=O)NCCc4ccccc4)n(-c4ccccc4)c(=O)c3cc2CO1	-12%
COc1cccc2cc(C(=O)N3CCN(C/C=C/c4ccccc4)CC3)c(=O)oc12	8%
O=[N+]([O-])c1cc(-c2nc3nc4ccccc4nc3n2CCc2ccccc2)cc([N+](=O)[O-])c1	-10%
Cc1cccc(N2C(=NC(=O)c3ccccc3)SC3CS(=O)(=O)CC32)c1 (centres undefined)	-24%
Cc1ccnc(NC(=O)c2oc3ccccc3c2C)c1	-18%
CCN1C(=O)C(CC(=O)Nc2ccc(OC)cc2)N(Cc2cccnc2)C1=S (centres undefined)	0%
O=C1C2C3C=CC(C3)C2C(=O)N1CC1CCCO1 (centres undefined)	9%

3 structures from above, arranged by length of the SMILES, falling:
SMILES	VDR inh
COc1cccc2cc(C(=O)N3CCN(C/C=C/c4ccccc4)CC3)c(=O)oc12	8%
Cc1ccnc(NC(=O)c2oc3ccccc3c2C)c1	-18%
O=C(N/N=C/c1ccccc1Br)C1CC1	7%

Some of the compounds tested; rates above refer to the full screens.
